D2 potentiator: potentiates the human D2 dopamine receptor allosterically. AID 624464. potentiation, % (test concentration not listed). 360,000 tested, 0.23% active. DiscoveRx D2 beta-arrestin cells, luminescence, 90 min; 100% = 57 uM dopamine signal. P14416; active = potentiation of 50% or more; inconclusive = 30% to 50%; inactive = 30% or less;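 note: compound concentration not given in the record; tested on top of an EC20 dose of dopamine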
Target sequence (P14416 whole entry, looked up): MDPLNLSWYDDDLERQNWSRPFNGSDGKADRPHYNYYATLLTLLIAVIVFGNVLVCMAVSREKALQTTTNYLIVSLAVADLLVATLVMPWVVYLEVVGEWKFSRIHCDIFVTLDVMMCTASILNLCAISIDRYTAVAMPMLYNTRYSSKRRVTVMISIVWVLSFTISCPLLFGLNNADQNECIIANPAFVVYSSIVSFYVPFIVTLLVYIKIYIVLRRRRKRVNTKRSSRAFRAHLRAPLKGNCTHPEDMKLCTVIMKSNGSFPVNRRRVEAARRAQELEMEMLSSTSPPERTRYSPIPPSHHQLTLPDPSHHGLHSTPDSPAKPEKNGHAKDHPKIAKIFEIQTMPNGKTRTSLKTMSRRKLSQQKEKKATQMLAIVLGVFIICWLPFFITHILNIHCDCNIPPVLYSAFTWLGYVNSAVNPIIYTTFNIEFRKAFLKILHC
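D2 cells co-treated with compound plus 50 nM dopamine (EC20) for 90 min at 37 deg C to detect potentiation. Beta-arrestin recruitment was read as enzyme-fragment luminescence after 1 h at ambient temperature. Full response was set by 57 uM dopamine.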
Six1-Eya2 inh: inhibitors of human Six1/Eya2 interaction; Q15475+O00167; AlphaScreen GST-Six1/His-Eya2 binding, biochemical; hits give low values; control for the full effect not named in the record; activity change, % (test concentration not listed); 360,000 tested, 0.56% active; AID 651725; in the data active = activity change below about -65%; inconclusive = about -30% to -65%; inactive = above about -30%; note: % is set by controls: 0 for no effect and ±100 for the full control effect; compound concentration not given in the record
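Six1/Eya2 binding was read as AlphaScreen signal after compounds were pinned into GST-Six1 plus His-tagged Eya2 (5X stock 250/500 nM) in pH 8.0 Tris/NaCl/TCEP buffer, beads added, then incubated 1 h, 37 C, dark.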
TRPML1 ag: agonists of human TRPML1 channel; Q9GZU1; TRPML1-expressing cells, Ca2+ dye fluorescence, FDSS; host cell line not named in the record; reference of the full effect not given here; activation, % (concentration not given with the values); 410,000 tested, 0.12% active; in the data active = activation above about 50%; inconclusive = about 30% to 50%; inactive = below about 30%; note: 0% is about no effect; the text of the record puts the active cut at 80%
Target sequence (Q9GZU1 whole entry, looked up): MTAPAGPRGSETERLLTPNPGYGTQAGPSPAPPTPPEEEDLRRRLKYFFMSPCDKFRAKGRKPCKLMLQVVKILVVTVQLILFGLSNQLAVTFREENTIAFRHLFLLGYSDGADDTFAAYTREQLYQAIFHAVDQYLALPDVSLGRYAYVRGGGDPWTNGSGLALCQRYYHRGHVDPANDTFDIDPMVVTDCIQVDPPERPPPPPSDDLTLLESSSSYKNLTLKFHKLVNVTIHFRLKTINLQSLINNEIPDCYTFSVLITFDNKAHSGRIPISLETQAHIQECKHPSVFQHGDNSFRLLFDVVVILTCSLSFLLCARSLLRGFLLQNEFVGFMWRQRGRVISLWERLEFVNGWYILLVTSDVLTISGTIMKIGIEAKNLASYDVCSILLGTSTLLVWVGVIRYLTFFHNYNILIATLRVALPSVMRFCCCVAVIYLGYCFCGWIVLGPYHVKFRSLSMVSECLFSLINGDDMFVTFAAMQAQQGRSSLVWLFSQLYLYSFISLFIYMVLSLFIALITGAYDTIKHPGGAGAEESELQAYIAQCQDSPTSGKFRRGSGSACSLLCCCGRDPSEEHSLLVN
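Calcium fluorescence on an FDSS kinetic reader gave the read-out. Tet-induced TRPML1-DL cells were plated overnight, dye-loaded (Ca8 with quencher, 45-90 min, room temperature, dark), then read 110 s after compound addition, and again 110 s after 4uM final 54-4 (EC80).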
TRPML1 blocker: inhibitors of human TRPML1 channel. Q9GZU1. TRPML1-inducible cells, Ca2+ dye fluorescence, FDSS; hits give low values; inhibition of EC80 agonist-evoked calcium signal. activity change, negative = inhibition, % (test concentration not listed). 390,000 tested, 0.02% active. AID 624415; in the data active means activity change below about -50%; inconclusive means about -30% to -50%; inactive means above about -30%;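 note: stimulus is agonist 54-4 at its EC80 concentration; % is set by controls: 0 for no effect and ±100 for the full control effect; compound concentration not given in the record; the text of the record puts the active cut at -80%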
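TRPML1-DL cells, Tet-induced overnight (~16 h, 37 °C) at 1,500 cells/well, were loaded with Ca8 no-wash dye plus quencher for 45-90 min at room temperature. Compounds were pinned during FDSS kinetic reading; agonist 54-4 at EC80 (4 uM final) then added.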
CtBP-E1A inh: CtBP/E1A binding inhibition; AlphaScreen GST-E1A/His-CtBP binding, 1536-well; hits give low values; control for the full effect not named in the record; activity change, % (test concentration not listed); 340,000 tested, 0.49% active; AID 651724; in the data active means activity change below about -65%; inconclusive means about -30% to -65%; inactive means above about -30%; note: % is set by controls: 0 for no effect and ±100 for the full control effect; compound concentration not given in the record
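Protein mix (5X: 125 nM each GST-E1A, His-CtBP) was incubated with pinned compound 2 h at 37 deg C in dark, in 50 mM Tris pH 8.0 buffer with 300 mM NaCl. Glutathione donor and nickel acceptor beads followed; AlphaScreen signal read after 1 h.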
TRPV1 potentiator: human TRPV1 potentiation. TRPV1-expressing cells, Fluo-8 calcium influx, capsaicin EC20 potentiation; host cell line not named in the record; control for the full effect not named in the record. potentiation, % at 8.33 µM. 320,000 tested, 0.02% active. AID 540277; active means potentiation above 80%; inconclusive means 30% to 80%; inactive means below 30%; note: 0% is about no effect
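TRPV1-expressing cells were cultured overnight at 35.5C and loaded with Fluo-8 calcium dye for 40 to 90 min at room temperature. After a 10 s baseline, compound was added and calcium influx was read kinetically for 3 min (ex 480/em 520 nm).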
An asterisk follows results filed as active; ? = inconclusive; . = no result given; & = joins results of further samples.

canonical_smiles	D2 potentiator	Six1-Eya2 inh	TRPML1 ag	TRPML1 blocker	CtBP-E1A inh	TRPV1 potentiator
COCCNCCCCSc1ccc(Cl)cc1	-14	0	1.3	4	.	-5
Cc1c(C(=O)NCc2ccccn2)oc2ccccc12	-11	-1	-0.7	-5	8	0
CCOc1ncccc1C(=O)OCC(=O)Nc1cccc(S(N)(=O)=O)c1	1	-1	-0.5	-12	4	-5
CCOC(=O)C1(Cc2ccccc2)CCN(Cc2cccc(OC)c2O)CC1	-13	-1	-0.2	23	8	-23
CCOC(=O)C1ON2CCCCC2C1(O)C(F)(F)F (stereo unspecified)	-4	-1	0.6	25	2	0
O=C(O)c1ccc(/C=C2\SC(=S)N(NC(=O)c3ccccc3[N+](=O)[O-])C2=O)cc1	-12	?	0.5	-18	.	-2
CC(=O)c1ccc(NS(=O)(=O)c2ccc(C)cc2)cc1	-15	5	0.3	1	8	0
CS(=O)(=O)N1CCN(Cc2cc(=O)n3ccsc3n2)CC1	-3	0	-0.4	-2	0	3
O=C1Nc2cc(C(=O)N3CCN(Cc4ccccc4)CC3)ccc2SC1N1CCOCC1 (stereo unspecified)	1	4	-0.5	-4	-5	8
CC(C)(C)OC(=O)NC1CONC1=O (stereo unspecified)	-7	-7	0.1	-15	0	0

Following part:
canonical_smiles	D2 potentiator	Six1-Eya2 inh	TRPML1 ag	TRPML1 blocker	CtBP-E1A inh	TRPV1 potentiator
Cc1nnc(NC(=O)c2ccc3ccccc3c2)o1	-16	?	0.0	-4	?	4
O=C(O)CSc1nnc(NC(=O)CN2CCOCC2)s1	2	2	0.6	8	1	-14
CSc1ccccc1C(=O)N1CCN(c2cccc(Cl)c2)CC1	5	-19	1.7	70	29	2
CCC1CCc2c(sc3nc(SCC(=O)NCc4ccco4)n(-c4ccccc4)c(=O)c23)C1 (stereo unspecified)	-4	4	-0.4	-12	0	-11
Cc1ccccc1NC(=O)CSCc1cc(=O)n2ccsc2n1	-4	0	-0.3	-8	1	6
CC1=C(C(=O)N2CCOCC2)CC(CC(=O)NCCCN(C)C)C(=O)N1Cc1ccc(C(C)(C)C)cc1 (stereo unspecified)	-4	3	-0.7	.	7	.
COc1cccc(CCc2nnc(CCC(=O)N3CCCC3c3nccs3)o2)c1 (stereo unspecified)	1	-2	0.1	24	5	-3
Cc1ccc(NC(=O)/C(C#N)=C/c2cc(C)n(-c3ccc(N4CCOCC4)c([N+](=O)[O-])c3)c2C)c(C)c1	3	8	0.8	51	-2	-3
COc1ccc(-c2cc(-c3cc(F)ccc3O)[nH]n2)cc1OC	1	-9	0.0	4	-10	0
CC(=O)Nc1ccc(NC(=O)C(C)OC(=O)CSCc2cccc(Cl)c2)cc1 (stereo unspecified)	-15	-6	-0.2	2	14	-7

Continued:
canonical_smiles	D2 potentiator	Six1-Eya2 inh	TRPML1 ag	TRPML1 blocker	CtBP-E1A inh	TRPV1 potentiator
CCn1cc(C(=O)NCC2CCCO2)c(=O)c2cc(S(=O)(=O)N3CCCCCC3)ccc21 (stereo unspecified)	0	-3	-0.8	8	0	-10
CC1=C(C(=O)OCc2ccccc2)C(c2ccccc2OS(=O)(=O)c2ccccc2[N+](=O)[O-])NC(=O)N1CCCC(=O)O (stereo unspecified)	-3	-7	0.7	8	0	.
COc1ccc(-c2nc3nc(C)cc(C)n3n2)cc1	7	7	0.0	3	7	-12
N#CCCn1c(SCC(=O)N2CCN(S(=O)(=O)c3ccccc3)CC2)nc2ccccc21	11	2	-0.2	-8	5	5
CC(C)(C)OC(=O)N[C@H](C(=O)OC(C)(C)C)c1ccc(Br)cc1	-5	15	2.3	21	16	-15
CC(C)CN(Cc1cc2ccccc2[nH]c1=O)C(=O)c1cccnc1	12	1	-0.6	0	5	8
c1ccc2c(c1)nc(-c1ccncc1)n2CCNc1nc(CN2CCCCC2)cs1	-11	3	-0.3	11	6	19
COc1ccc(NC(=O)CN(C)C(=O)CCc2ccccc2)cc1	-6	-2	-0.2	-5	6	1
CCC(=O)NC(=S)Nc1cccc(NC(=O)c2ccco2)c1	-5	8	0.6	0	15	0
Cc1ccccc1NC(=S)N(CCCN1CCOCC1)Cc1cccs1	-32	0	0.4	-16	4	-17

Other entries follow:
canonical_smiles	D2 potentiator	Six1-Eya2 inh	TRPML1 ag	TRPML1 blocker	CtBP-E1A inh	TRPV1 potentiator
COC(=O)c1c(C(=O)OC)c2oc3ccccc3n2c1Cl	4	-20	0.8	-10	-24	4
O=C(Nc1cccc(N2C(=O)C3C4C=CC(C4)C3C2=O)c1)c1cccs1 (stereo unspecified)	-2	4	-0.4	-26	-3	-14
O=C(NNS(=O)(=O)c1ccccc1[N+](=O)[O-])c1ccncc1	5	0	0.1	18	6	-9
CC1CCN(S(=O)(=O)c2cccc(C(=O)NC3CCS(=O)(=O)C3)c2)CC1 (stereo unspecified)	-7	6	0.0&-0.2	-6&4	5	.
CCCCC(c1nnnn1CS(=O)(=O)c1ccc(C)cc1)N1CCN(C)CC1 (stereo unspecified)	-11	4	0.1	-3	4	-6
O=C(NCCn1cccn1)c1ccc(OC2CCN(CCc3ccccc3)CC2)cc1	-3	5	-0.3	0	11	1
COc1cccc(N2C(=O)c3ccncc3C2=O)c1	2	2	-0.4	-10	3	4
COc1ccc(C2CC(c3ccccc3O)=NN2c2ccccc2)cc1 (stereo unspecified)	-7	56	1.1	-13	29	.
Cc1ccc(C(=O)CNc2ccc(Cl)cc2)cc1	-49	-8	0.0	18	8	-3
O=C(c1ccc(F)cc1)N1CCC(C(=O)N2CCN(S(=O)(=O)c3cccc(F)c3)CC2)CC1	-20	1	1.4	10	7	9

Reformatted with values under each structure: entries from further up
Every second line gives: D2 potentiator	Six1-Eya2 inh	TRPML1 ag	TRPML1 blocker	CtBP-E1A inh	TRPV1 potentiator
COC(=O)c1c(C(=O)OC)c2oc3ccccc3n2c1Cl
  4	-20	0.8	-10	-24	4
Cc1ccc(C(=O)CNc2ccc(Cl)cc2)cc1
  -49	-8	0.0	18	8	-3
O=C(c1ccc(F)cc1)N1CCC(C(=O)N2CCN(S(=O)(=O)c3cccc(F)c3)CC2)CC1
  -20	1	1.4	10	7	9
CCCCC(c1nnnn1CS(=O)(=O)c1ccc(C)cc1)N1CCN(C)CC1 (stereo unspecified)
  -11	4	0.1	-3	4	-6

Additional compounds.
canonical_smiles	D2 potentiator	Six1-Eya2 inh	TRPML1 ag	TRPML1 blocker	CtBP-E1A inh	TRPV1 potentiator
OC[C@@H]1CN(Cc2ccccc2)C[C@H](n2cnc3c(NCc4ccncc4)ncnc32)O1	-3	0	-0.5	.	4	.
Cc1ccc(Nc2cc(C)c3ccc(O)cc3n2)cc1C	-16	8	-0.6	2	5	6
Cc1nnc(SCC(=O)NC2CCCCC2)n1N	5	8	-0.1	-2	-3	.
O=c1c2ccc(Cl)cc2[nH]c(=S)n1CCC1=CCCCC1	-6	14	-0.6	5	0	?
CN(C)c1cccc(N(C)C)c1CNC(=O)NC(=O)c1c(F)cccc1F	-11	5	1.3	-10	-14	-2
CCOc1ncccc1C(=O)N(CC)CC(=O)NCc1ccc(F)cc1	-1	8	1.0	11	2	-1
CNC(=O)CSc1nnc(COc2ccc([N+](=O)[O-])cc2)n1C	1	0	0.9	-9	0	-1
COc1cccc(OC(=O)c2ccccc2)c1OC(=O)c1ccccc1	-13	-12	3.1	54	7	.
NC(=O)c1ncn([C@@H]2O[C@H](CNCc3cnc(N4CCOCC4)s3)[C@@H](O)[C@H]2O)n1	.	9	0.4	1	-18	.
O=C(COC(=O)c1ccco1)c1ccc(S(=O)(=O)N2CCCCC2)cc1	-19	7	-0.3	12	2	-1

The list goes on:
canonical_smiles	D2 potentiator	Six1-Eya2 inh	TRPML1 ag	TRPML1 blocker	CtBP-E1A inh	TRPV1 potentiator
CC(C)(C)OC(=O)C[C@H]1C/C=C\C[C@@H](CC(=O)NCCO)C(=O)N[C@H](C(C)(C)C)COC1=O	.	0	-0.5	0	3	.
O=C(COC(=O)C12CC3CC(CC(C3)C1)C2)Nc1ccccc1F	7	3	2.1	-1	15	-3
CC(=O)OCC1OC(n2cc(F)c(=O)[nH]c2=O)C(OC(C)=O)C1OC(C)=O (stereo unspecified)	-5	-2	0.7	-7	.	.
CC(C)(C)OC(=O)N1CCN(CCNC(=O)c2ccccc2)CC1	-13	1	2.0	-10	6	-4
Cc1ccccc1OCCSc1nnc(-c2ccncc2)n1C	-2	0	0.0	-9	6	4
O=C(N/N=C/c1cccc(NC(=O)c2ccc(Cl)cc2)c1)c1ccc(O)cc1	-1	-2	0.6	29	-3	-5
COc1ccc(CNCc2ccc3ccccc3c2)c(OC)c1	-85	5	.	.	.	-2
Clc1ccc(-c2ccc(C=Nc3ccc(N4CCOCC4)cc3)o2)cc1	-3	-23	3.6	2	-6	1
O=C(Nc1cccc(-c2nc3ccccc3[nH]2)c1)c1ccc(C(=O)Nc2cccc(-c3nc4ccccc4[nH]3)c2)cc1	-1	0	-0.7	8	-4	?
CCOc1ncccc1C(=O)Nc1ccccc1F	0	8	1.9	19	17	3

The results go on:
canonical_smiles	D2 potentiator	Six1-Eya2 inh	TRPML1 ag	TRPML1 blocker	CtBP-E1A inh	TRPV1 potentiator
Fc1ccc(COc2ccccc2-c2ccnc3ncnn23)cc1	0	0	0.9	29	11	2
O=C(CSc1nnc(NC(=O)c2ccc3c(c2)OCO3)s1)NCc1ccco1	-12	9	-0.6	-3	-16	5
Cc1ccc(C)c(S(=O)(=O)N2CCN(Cc3cc4c(cc3O)OCO4)CC2)c1	5	?	3.6	25	-2	-6
O=C1NC(c2cccc(Cl)c2)Oc2ccccc21 (stereo unspecified)	-5	-14	0.4	-7	-6	-7
O=C(NC1CCCCC1)c1ccc(NS(=O)(=O)c2cccc3cccnc23)cc1	-10	5	0.8	5	0	-9
CCOC(=O)c1ccc(NC(=O)c2nc[nH]c2C(=O)N[C@@H](Cc2ccccc2)C(=O)OC(C)(C)C)cc1	-15	?	-0.4	5	-9	1
Cc1cc(CN(C)C(=O)CCc2nnc(Cc3cccc(C(F)(F)F)c3)o2)on1	-5	6	0.6	4	0	-3
CCc1ccccc1NC(=O)CCc1nc(-c2ccc(C)cc2)no1	-19	1	1.2	10	-11	6
CC1CCCN(S(=O)(=O)c2cc3c4c(c2)CCN4C(=O)CC3)C1 (stereo unspecified)	3	6	0.0	16	-1	-14

High-throughput results as filed in PubChem.
